# Screening data: PubChem BioAssay, National Center for Advancing Translational Sciences (NCATS)
# VDR inh: Inhibitors of the vitamin D receptor (VDR): qHTS; Vitamin D3 receptor (Homo sapiens), P11473; VDR-SRC2-3 peptide fluorescence polarization, 2 h; Potency, µM, without a hit: max response, negative = inhibition, hits mostly inhibitors; actives 0.93% (n = 400,000); AID 504847, 2011; active = well fitted inhibition curve with a large enough effect; inconclusive = small, poorly fitted or top-dose-only effect, or another doubt; inactive = no such curve, though single readings can be large or run the other way; note: series mostly up to about 120 µM
# Target sequence (P11473 whole entry, looked up): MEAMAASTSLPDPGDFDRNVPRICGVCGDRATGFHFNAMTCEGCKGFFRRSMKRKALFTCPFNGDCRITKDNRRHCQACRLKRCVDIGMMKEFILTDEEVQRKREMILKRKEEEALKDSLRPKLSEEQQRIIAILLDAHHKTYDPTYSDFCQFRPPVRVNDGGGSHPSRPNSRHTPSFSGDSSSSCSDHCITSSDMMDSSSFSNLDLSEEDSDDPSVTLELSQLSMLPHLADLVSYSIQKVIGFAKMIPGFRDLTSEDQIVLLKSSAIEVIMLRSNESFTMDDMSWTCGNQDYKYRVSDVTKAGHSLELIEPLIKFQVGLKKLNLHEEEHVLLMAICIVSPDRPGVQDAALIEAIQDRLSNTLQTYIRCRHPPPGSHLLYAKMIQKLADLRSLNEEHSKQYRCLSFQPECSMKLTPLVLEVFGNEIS
#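 VDR–SRC2-3 interaction, FP format. Cmpds 23 nl via pintool, brief spin, 2 h ambient incubation.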
# Numbers without * were called inactive; ? = inconclusive; & = joins results of further samples. % is set by controls: 0 for no effect and ±100 for the full control effect; potency is the fitted concentration of half-maximal effect. Some of the compounds tested (hit frequency here may not be typical).
SMILES,VDR inh
O=C(COC(=O)c1cc(Br)ccc1O)Nc1ccc2c(c1)OCCO2,10.9%
O=C(/C=C/c1ccc(O)c(O)c1)NC(=O)c1ccccc1O,-13.4%&-12.4%
CCOc1ccccc1C=NNC(=O)c1cccc2ccccc12,-16.6%
O=C(CNCCc1ccccc1)Nc1ccc(C(=O)N2CCCCC2)cc1,3.8%
O=C(O)/C=C/c1cn(Cc2ccccc2Cl)nc1-c1ccccc1,?
Cc1cccc(CC(=O)Nc2cc(C)c3c(=O)oc4ccccc4c3n2)c1,25.1%
CCCCC1=CC2=CC(=O)C(C)(OC(=O)CC)C(=O)C2=CN1Cc1ccco1 (centres undefined),-22.1%
Cn1cccc1Cc1nnc(SCC(=O)NCCc2ccccc2)n1-c1ccc(F)cc1,-14.7%
COc1cccc(CNC(=O)c2cccc(-n3c(C)nc4cccnc43)c2)c1OC,9.3%
CCN(CC(=O)Nc1c(F)cccc1F)C(=O)c1cc2ccccc2oc1=O,12.3%
Cc1ccc2cc(C)c(SCC(=O)NCc3ccco3)nc2c1,13.0%
CN(CCc1ccccc1)C(=O)c1ccc(NC(=O)Cc2ccc(NC(=O)C3CCCN(C(=O)CCc4ccccc4)C3)cc2)cc1 (centres undefined),-10.3%
Cc1ccc2c(c1)nnn2C1CCN(CC(=O)N(c2ccccc2)c2ccccc2)CC1,-2.6%
O=C(NCCCc1ccccc1)C(=O)NCC1OCCN1S(=O)(=O)c1ccc(F)cc1 (centres undefined),1.2%
CCOc1ccc2nc(NCCCO)[nH]c2c1,-2.2%
O=C(OCc1nc2scc(-c3ccccc3)c2c(=O)[nH]1)c1ccco1,-9.3%
CC(C)(Oc1ccc(Cl)cc1)C(=O)N1CCC(C(N)=O)CC1,-5.1%
CCN(C(=O)Cn1nc(C)c([N+](=O)[O-])c1C)C1CCS(=O)(=O)C1 (centres undefined),13.8%
O=C1NC(=Nc2ccccc2)S/C1=C/c1cccs1,-8.7%
CCOC(=O)[C@H]1[C@H]2COc3ccc(Br)cc3[C@@H]2N2C(=O)N(c3ccc(F)cc3)C(=O)[C@@]12C,-9.9%
CN1CCN(C(=O)C2=C[C@@H](c3ccccc3)C[C@@H](OCCCCO)O2)CC1,-3.0%
O=C1C=C(c2cc3ccccc3s2)C[C@@H](c2ccc(Cl)cc2)C1,?
Cc1nnc(N(Cc2ccccc2)C(=O)c2cnccn2)s1,-4.4%
COc1ccc(/C=C/C(=O)N2CCN(S(=O)(=O)c3ccccc3Br)CC2)cc1OC,20.4%
CCOc1ccc(CNC(=O)C2CCN(S(=O)(=O)c3cn(C)cn3)CC2)cc1,-0.2%
# Additional entries follow.
SMILES,VDR inh
Oc1ccc(C=NC2CCCCC2)c(O)c1,16.4%
Cc1cc(C)n(-c2nnc(C)n2/N=C/c2ccco2)n1,0.6%
Cn1nnnc1Sc1ncnc2scc(-c3cccs3)c12,?
Cc1cc(NC(=O)COC(=O)CCS(=O)(=O)c2ccc(Cl)cc2)no1,10.5%
O=C(COC(=O)c1cccs1)Nc1cccc(S(=O)(=O)NC2=NCCCCC2)c1,-10.9%
O=C(c1ccccc1-c1ccccc1)N1CCCCC1,-5.9%
COc1cc(C2CC(=O)N(Cc3cccc(F)c3)c3ccccc3S2)cc(OC)c1OC (centres undefined),-17.0%
N/C(CN1CCSCC1)=N\OCc1c(F)cccc1Cl,-7.1%
COc1ccc(C2C(C(=O)Nc3cc(C)on3)c3ccccc3C(=O)N2C)cc1OC (centres undefined),-1.6%
COc1ccc(OC)c(C2C(C#N)=C(N)Oc3cc(N)ccc32)c1 (centres undefined),-22.7%
CCn1c(=O)c(C(=O)NCc2ccccc2)c(O)c2ccccc21,5.2%
O=C(COC(=O)COc1ccccc1F)Nc1ccc2c(c1)OCO2,17.4%
CCCCNC(=O)C1CC(=O)N(c2ccc(OC)cc2)C1c1ccc(OC)cc1 (centres undefined),9.4%
Cc1ccccc1OCc1ccc(-c2nc(C#N)c(N3CCCCC3)o2)o1,5.9%
Cc1cc(Cl)ccc1C(=O)C1CCCN(C(=O)c2cc(C(C)C)no2)C1 (centres undefined),-6.2%
COc1ccc(NC(=O)CCN2C(=O)C3CC=C(Cl)CC3C2=O)cc1 (centres undefined),-7.4%
CCCCn1c(N)c(N(C)C(=O)C2CC(=O)N(Cc3ccco3)C2)c(=O)[nH]c1=O (centres undefined),-9.8%
COC(=O)N1CCC2(CCN(C(=O)Nc3ccc(OC)cc3)CC2)CC1,2.7%
COc1ccccc1OCc1ccc(C(=O)N2CCN(C(=O)c3ccco3)CC2)cc1,7.7%
NC(=O)CCN(Cc1ccccc1)S(=O)(=O)c1ccccc1,-12.1%
Cc1c(C(=O)NCCc2ccccc2)oc2ccc(S(=O)(=O)N3CCOCC3)cc12,-1.9%
Cc1ccc(CNS(=O)(=O)N(C)C)cc1,7.0%
CCOC(=O)C1(CCc2ccccc2)CCN(C(=O)c2cc(C)nc(C)n2)CC1,-2.6%
O=C1COc2ccc(C(=O)COC(=O)c3ccc([N+](=O)[O-])cc3Cl)cc2N1,-27.6%
Cc1cc2nc(CCN3CCOCC3)n(S(=O)(=O)c3ccc(C(C)(C)C)cc3)c2cc1C,-9.7%

# In another format: 3 of the compounds above
smiles	VDR inh
CCCCNC(=O)C1CC(=O)N(c2ccc(OC)cc2)C1c1ccc(OC)cc1 (centres undefined)	9.4%
COc1ccccc1OCc1ccc(C(=O)N2CCN(C(=O)c3ccco3)CC2)cc1	7.7%
CCn1c(=O)c(C(=O)NCc2ccccc2)c(O)c2ccccc21	5.2%

# Following part
SMILES,VDR inh
CC(C)c1ccc(OCC(=O)Nc2c(Cl)ccc3nsnc23)cc1,-5.5%
CN(C)c1ccc(/C=C(\Cl)c2nc3ccccc3s2)cc1,-20.8%
CCCN1CCC(=O)N(C(CSc2ccc(Br)cc2)CC(C)C)CC1 (centres undefined),-29.0%
Cc1cc(NS(=O)(=O)c2ccc(NC(=O)/C=C/c3ccccc3)cc2)no1,-8.5%
O=S(=O)(c1ccc(Cl)cc1)N1CCN=C1SCc1ccc(Cl)c(Cl)c1,-6.2%
COc1cccc2c1O/C(=N\O)C(C(=O)Nc1cccc(Br)c1)C2 (centres undefined),9.9%
CCN(CC(=O)Nc1ccc(NC(C)=O)cc1)C(=O)c1cc2c(s1)CCCC2,-1.9%
COC(=O)c1ccc(NC(=O)CC2C(=O)N(c3ccccc3)C(=O)N2Cc2cccs2)cc1 (centres undefined),18.1%
CCn1c(=O)c2cc(C(=O)N3CCN(c4cccc(Cl)c4)CC3)sc2c2ccccc21,-7.6%
CCC1CCCCN1Cc1ccc(CNS(=O)(=O)c2ccc3c(c2)oc(=O)n3C)o1 (centres undefined),4.5%
CCOC(=O)c1cc2c(=O)n3cccc(C)c3nc2n(Cc2ccco2)c1=NC(=O)c1ccc(C)cc1,0.7%
COc1ccc(CCN(C)Cc2nc(-c3cnccn3)no2)cc1OC,-0.4%
CCOC(=O)C1CCN(S(=O)(=O)c2ccc3c(c2)N(C)C(=O)CC(=O)N3C)CC1,-14.1%&-0.7%
Cc1cc(=O)oc2c(C)c(OCC(=O)NCCCN3CCCC3=O)ccc12,-1.4%
CCC(CC)C(=O)Nc1nnc(S(=O)(=O)Nc2ccc(OC)cc2)s1,-1.4%
COc1ccc(CC(=O)Nc2ccc(OC(C)=O)cc2C(=O)O)cc1,12.1%
COc1ccc(-c2ccc(C)cc2)cc1C1C2C=CCC(C)C2C(=O)N1Cc1ccccc1 (centres undefined),-6.6%
Cc1ccc(NC(=O)CCCN2C(=O)/C(=C/C=C/c3ccccc3)SC2=S)cc1,2.6%
Nc1nnc(SCc2ccccc2F)n1-c1ccccc1,-2.1%
Cc1nc(NCCc2ccc(O)cc2)c2nnn(Cc3ccccc3)c2n1,-13.1%
CC(CC(=O)c1cccs1)CC(=O)c1cccs1,27.0%
CCCn1c(N2CCN(C)CC2)nc2c1c(=O)[nH]c(=O)n2C,-14.0%
Cc1nn2c(NCCOCCO)c3c(nc2c1-c1ccccc1)CCCC3,-20.6%
CN(C)C(CNC(=O)CSc1nc2sc3c(c2c(=O)n1C)CCCC3)c1ccccc1 (centres undefined),6.1%
COc1ccc(N2CCN(C(=O)CCSCc3ccccc3F)CC2)cc1,13.5%
# (more compounds)
SMILES,VDR inh
O=C(NCC1CC1)[C@]1(C(F)(F)F)C[C@H](CCC2CCCCC2)CCCO1,-14.2%&-17.3%
O=C1COc2cc(S(=O)(=O)CCC(=O)N3CCCCC3)c(Cl)cc2N1,-15.0%
O=C(CC1C[C@H](C(=O)N2CCOCC2)[C@@]2(CCC3CCCC3)c3[nH]c4ccccc4c3CCN2C1=O)NCCc1ccccn1 (some centres undefined),-16.3%
COC(=O)c1[nH]c2ccccc2c1NC(=O)CN1CCCc2ccccc21,17.2%
Cc1nc(N)c(Br)c(C)c1Br,-15.5%
Oc1[nH]c2ccccc2c1N=NC(=S)NCCc1ccccc1,-7.9%
Cc1cc(F)ccc1NC(=O)C1CSC2(C)CCC(=O)N12 (centres undefined),?
CCc1nn(CC(=O)N2CCC(C)CC2)c(=O)c2cccn12,-7.0%
COc1ccc(CN(C(=O)c2ccc(C)cc2)C2CCS(=O)(=O)C2)cc1 (centres undefined),-5.8%
O=C(CO/N=C1\CCCc2nonc21)Nc1ccc(Br)cc1,-2.0%
O=C1NC2c3c(Cl)sc(Cl)c3C(=O)C2O1 (centres undefined),?
CC(NC(=O)CN(c1ccccc1F)S(C)(=O)=O)c1ccccc1 (centres undefined),6.4%
COc1ccc(OC)c2[nH]c(=O)c(CCNS(=O)(=O)c3ccc(F)cc3)cc12,-6.7%
C/C(=N\N=C(c1ccccc1)c1ccccc1)c1ccco1,-13.2%
CCOc1ccccc1N1CCN(CC(O)COc2ccc3c(C)cc(=O)oc3c2)CC1 (centres undefined),10.3%
CCC(CC)NC(=O)Cc1ccccc1OC,14.1%
N#Cc1c(NC(=S)NC(=O)C2CCCC2)sc2c1CCCCC2,-20.0%
CN(c1cccc(NC(=O)CN2C(=O)c3ccccc3S2(=O)=O)c1)S(C)(=O)=O,-18.7%
O=C(Nc1ncccc1Cl)c1cccc(F)c1,-2.7%
CCOC(=O)CSc1nnc(CNC(=O)c2ccc(OC)cc2OC)n1-c1ccc(OC)cc1,11.2%
Cc1c(NC(=O)c2ccc(Cl)c([N+](=O)[O-])c2)cccc1-n1cnnn1,2.8%
N/C(=N/O)c1cccn1Cc1ccccc1[N+](=O)[O-],-3.4%
Cc1ccc(NC(=O)COC(=O)COc2cccc3c2OC(C)(C)C3)cc1C,-9.5%
COc1ccccc1C(=O)NC(=O)COC(=O)CNC(=O)c1ccccc1,-11.5%
CCCc1cc(C(=O)OCC(=O)N(CCC)c2c(N)n(Cc3ccccc3)c(=O)[nH]c2=O)sc1C,2.3%
# The results go on.
SMILES,VDR inh
Cc1ccccc1SC1CCN(C(=O)C2CCC(=O)N(C3CC3)C2)CC1 (centres undefined),14.1%
COc1ccc(C(=O)NCC(c2ccco2)S(=O)(=O)c2ccccc2)cc1 (centres undefined),11.6%
Cc1ccc(NC(=O)CCn2cnc3ccccc3c2=O)cc1Cl,12.0%
CCCCNS(=O)(=O)c1ccc(NC(=O)c2c(-c3ccccc3)noc2C)cc1,-20.0%
Cc1ccc(-c2csc(N/N=C/c3ccco3)n2)c(C)c1,-22.5%
CCCNC(=O)c1ccc(S(=O)(=O)c2ccc(OC)cc2)c([N+](=O)[O-])c1,-2.4%
CCN(CC)CCCn1c2c(c(SCC(=O)Nc3ccc(OC(F)(F)F)cc3)nc1=O)CCC2,-11.4%
O=C(O)C1(P(=O)(c2ccccc2)c2ccccc2)CCC1,-0.4%
Cc1ccc(Nc2nc3ccccc3n3cnnc23)c(Cl)c1,-6.6%
Cc1cc(C)nc(NC(=O)CCN2C(=O)c3ccccc3S2(=O)=O)n1,5.0%
Cc1cc(Nc2ccccc2)nn1C(=O)c1ccc(Cl)cc1,-3.4%
O=C(Nc1ccc(Cl)cn1)Nc1ccc(Cl)cn1,7.4%
CN1C(=O)/C(=C/c2ccccc2F)Sc2ccc(C(=O)NCC3CCCO3)cc21 (centres undefined),-4.8%
CCN(Cc1ccccc1)C(=O)c1cc2c(=O)[nH]c3ccc(C)cc3c2s1,-1.7%
CCCn1nc(NC(=O)C(C)(C)C)c2cc3cc(OC)ccc3nc21,-2.5%
CC(NC(=O)CN1CCCC1)c1ccccc1 (centres undefined),-1.3%
COc1cc(-c2nc(Cn3nnc(C(=O)Nc4cc(C)cc(C)c4)c3C)c(C)o2)cc(OC)c1OC,-11.2%
Cc1ccc(CSC2=NCCN2C(=O)C2CC2)cc1,12.1%
CC(C)(C)CC(=O)Nc1ccccc1N1CCN(c2ccc(F)cc2)CC1,4.0%
COc1cccc2sc(NNC(=O)C3=COCCO3)nc12,-1.0%
COc1cc(NC(=O)c2cc(OC)c(OC)c(OC)c2)c2ncccc2c1,8.5%
Cc1cccc(NC(=O)c2cc(S(=O)(=O)N3CCCCC3)c[nH]2)c1C,-0.9%&14.2%
CC(C)Cn1c(-c2cccnc2)nc2c1c(=O)[nH]c(=O)n2CC(C)C,16.0%
Cc1nc2cc(C(=O)O)ccc2s1,-1.1%
CN1CCN(S(=O)(=O)c2ccc(NN)nc2)CC1,1.1%
COc1ccc2cc3cc(C(=O)N4CCCCCC4)oc3nc2c1,-7.3%
CCC(C(N)=O)c1ccccc1 (centres undefined),-4.8%

# No new results follow: 2 of the compounds above.
SMILES,VDR inh
COc1ccc2cc3cc(C(=O)N4CCCCCC4)oc3nc2c1,-7.3%
CCC(C(N)=O)c1ccccc1 (centres undefined),-4.8%

# Some of the entries above in a different format.
SMILES	VDR inh
Cc1ccc(-c2csc(N/N=C/c3ccco3)n2)c(C)c1	-22.5%
CCCNC(=O)c1ccc(S(=O)(=O)c2ccc(OC)cc2)c([N+](=O)[O-])c1	-2.4%
CCN(CC)CCCn1c2c(c(SCC(=O)Nc3ccc(OC(F)(F)F)cc3)nc1=O)CCC2	-11.4%
O=C(O)C1(P(=O)(c2ccccc2)c2ccccc2)CCC1	-0.4%
Cc1ccc(Nc2nc3ccccc3n3cnnc23)c(Cl)c1	-6.6%
